Source: PubChem
PINK1 modulator: A Quantitative High throughput Screen to Identify Chemical Modulators of PINK1 Expression; Potency, µM (titrated, usually from 76.6 µM), for inactives: top-dose activation (PINK1 increase), actives largely listed as activators; 410,000 tested, 0.2% active; PINK1 immunofluorescence, high-content cytometry, 24 h; AID 624263, 2012; active = well fitted activation curve with a large enough effect; inconclusive = small, poorly fitted or top-dose-only effect; inactive = flat fitted curve, though single readings scatter; cell line not stated here;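 also: potency is read from the fitted curve at half-maximal effect; % of control where 0% means no effect; nearly all actives have a fitted effect of over 65% in size; a mitochondrial uncoupler was the plate control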
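Compound titrations (5 concentrations, 24 h) on a stable cell line; DMSO and CCCP controls. Endpoint: fixed-cell PINK1 immunofluorescence with mitochondrial, cell and nuclear markers, scanned by microplate cytometer.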
D2 ag: Beta-Arrestin HTS for Positive Allosteric Modulators of the Human D2 Dopamine Receptor: Agonists | DiscoveRx PathHunter D2 beta-arrestin, luminescence, 90 min; 100% = 57 uM dopamine signal | activation, % (concentration not given with the values) | 360,000 tested, 0.084% active | AID 624465, 2012 | D(2) dopamine receptor (Homo sapiens), P14416; in the data active = activation above about 40%; inconclusive = about 15% to 40%; inactive = below about 15%; also: compound concentration not given in the record; the text of the record calls up to 30% inactive
Target sequence (P14416 whole entry, looked up): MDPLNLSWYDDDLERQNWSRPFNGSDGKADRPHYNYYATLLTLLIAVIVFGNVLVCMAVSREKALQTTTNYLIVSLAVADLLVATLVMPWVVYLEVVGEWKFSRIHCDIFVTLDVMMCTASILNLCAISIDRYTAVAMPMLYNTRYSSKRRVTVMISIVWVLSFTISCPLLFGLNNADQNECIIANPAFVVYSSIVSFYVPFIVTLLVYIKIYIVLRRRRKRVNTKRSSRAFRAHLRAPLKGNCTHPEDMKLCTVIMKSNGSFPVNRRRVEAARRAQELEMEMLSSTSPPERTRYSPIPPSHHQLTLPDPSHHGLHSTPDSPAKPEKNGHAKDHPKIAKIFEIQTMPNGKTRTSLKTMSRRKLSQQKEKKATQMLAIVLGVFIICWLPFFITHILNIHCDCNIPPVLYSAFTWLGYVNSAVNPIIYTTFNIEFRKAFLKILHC
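DiscoveRx PathHunter D2 beta-arrestin cells (2,100/well) attached overnight, then compound-stimulated 90 min at 37 C in HBSS/10 mM HEPES/0.1% Tween-20 buffer; beta-galactosidase complementation read by luminescence after 1 h at ambient temperature. Dopamine 57 uM final (EC100) as control.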
CtBP-E1A blk: qHTS Assay for Inhibitors of the CtBP/E1A Interaction; 340,000 tested, 0.49% active; activity change, % (test concentration not listed); AlphaScreen GST-E1A/His-CtBP binding, 1536-well; hits give low values; control for the full effect not named in the record; CtBP / adenovirus E1A interaction (AlphaScreen); in the data active means activity change below about -65%; inconclusive means about -30% to -65%; inactive means above about -30%; also: % is scaled to controls: 0 for no effect and ±100 for the full control effect; compound concentration not given in the record
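Homogeneous bead-based format: GST-tagged E1A captured on glutathione donor beads, His-tagged CtBP on nickel acceptor beads; compounds precede bead addition by 2 h at 37 °C.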
TRPML1 agonist: qHTS for Agonists of the Human Mucolipin Transient Receptor Potential 1 (TRPML1). Mucolipin-1 (Homo sapiens), Q9GZU1. TRPML1-expressing cells, Ca2+ dye fluorescence, FDSS; host cell line not named in the record; reference of the full effect not given here. activation, % (concentration not given with the values). 410,000 tested, 0.12% active; in the data active = activation above about 50%; inconclusive = about 30% to 50%; inactive = below about 30%; also: 0% is about no effect; the text of the record puts the active cut at 80%
Target sequence (Q9GZU1 whole entry, looked up): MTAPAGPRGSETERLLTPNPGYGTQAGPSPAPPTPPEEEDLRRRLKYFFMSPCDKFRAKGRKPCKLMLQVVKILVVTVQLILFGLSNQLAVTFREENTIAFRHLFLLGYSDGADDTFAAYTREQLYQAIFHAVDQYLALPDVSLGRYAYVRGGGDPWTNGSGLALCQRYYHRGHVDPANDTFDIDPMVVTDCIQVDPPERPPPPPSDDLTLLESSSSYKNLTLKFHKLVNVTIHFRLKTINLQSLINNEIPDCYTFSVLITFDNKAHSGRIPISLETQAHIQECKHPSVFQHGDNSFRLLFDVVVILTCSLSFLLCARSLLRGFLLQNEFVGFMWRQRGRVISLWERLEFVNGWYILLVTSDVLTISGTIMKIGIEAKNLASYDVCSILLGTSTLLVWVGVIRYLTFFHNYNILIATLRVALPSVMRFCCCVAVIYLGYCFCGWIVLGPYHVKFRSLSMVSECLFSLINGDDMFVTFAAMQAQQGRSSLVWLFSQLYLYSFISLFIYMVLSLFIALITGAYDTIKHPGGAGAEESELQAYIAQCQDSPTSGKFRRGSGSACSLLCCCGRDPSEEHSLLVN
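Tetracycline-induced TRPML1-DL cells are seeded and incubated overnight before loading with a no-wash Ca2+ dye and quencher. Agonist activity is taken from the 110 s fluorescence read following compound pin-transfer on an FDSS, before EC80 54-4 challenge.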
TRPML1 blocker: qHTS for Inhibitors of the Human Mucolipin Transient Receptor Potential 1 (TRPML1) | Mucolipin-1 (Homo sapiens), Q9GZU1 | TRPML1-inducible cells, Ca2+ dye fluorescence, FDSS; hits give low values; inhibition of EC80 agonist-evoked calcium signal | activity change, negative = inhibition, % (concentration not given with the values) | 390,000 tested, 0.02% active; in the data active means activity change below about -50%; inconclusive means about -30% to -50%; inactive means above about -30%;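 also: stimulus is agonist 54-4 at its EC80 concentration; % is scaled to controls: 0 for no effect and ±100 for the full control effect; compound concentration not given in the record; the text of the record puts the active cut at -80%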
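Calcium fluorescence in TRPML1-DL cells induced overnight with Tet: a 110 s read after compound pin addition, then a 110 s antagonist read after challenge with 54-4 at 4 uM final (EC80).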
Six1-Eya2 blk: qHTS Assay for Inhibitors of the Six1/Eya2 Interaction | AID 651725, 2012 | AlphaScreen GST-Six1/His-Eya2 binding, biochemical; hits give low values; control for the full effect not named in the record | activity change, % (no concentration beside the values) | 360,000 tested, 0.56% active; in the data active = activity change below about -65%; inconclusive = about -30% to -65%; inactive = above about -30%; also: % is scaled to controls: 0 for no effect and ±100 for the full control effect; compound concentration not given in the record
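Six1/Eya2 binding was read as AlphaScreen signal after compounds were pinned into GST-Six1 plus His-tagged Eya2 (5X stock 250/500 nM) in pH 8.0 Tris/NaCl/TCEP buffer, beads added, then incubated 1 h, 37 C, dark.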
Active calls of the source: *; u = inconclusive; x = not tested or not shown; & = joins results of further samples; [ ] = remark or other dose.

| SMILES | PINK1 modulator | D2 ag | CtBP-E1A blk | TRPML1 agonist | TRPML1 blocker | Six1-Eya2 blk |
| --- | --- | --- | --- | --- | --- | --- |
| COc1ccc2c(c1)C=C(C(=O)NCc1ccc(Cl)cc1)CO2 | -0.4% | -3.1 | 0 | 1.4 | -3 | -5 |
| CC1(C)Cc2c(c(N3CCCC3)nc3sc4c(N5CCN(CCO)CC5)ncnc4c23)CO1 | x | 0.7 | 9 | -0.1 | -8 | -17 |
| NC(=O)CSC1=N/C(=C\c2ccco2)C(=O)N1c1ccc(OC(F)F)cc1 | -1.8% | -6.6 | -11 | 1.3 | 4 | -11 |
| COc1ccc(-n2nc(C(=O)NCC(=O)Nc3ccccn3)c3ccccc3c2=O)cc1 | 3.3% | -2.2 | 3 | -0.4 | -2 | -1 |
| CCOc1ccc(NC(=O)CN(C)C(=O)c2ccc(N3CCCC3)c([N+](=O)[O-])c2)cc1OCC | -1.5% | -2.7 | 0 | 0.3 | -4 | -3 |
| CN1CCN(S(=O)(=O)CC2(C)C3CCC2(C)C(=O)C3Br)CC1 (configuration not stated) | 3.0% | 0.6 | 8 | 0.7 | -12 | 5 |
| COc1ccccc1OCC(=O)NC1CCCCCC1 | x | 0.4 | -7 | -0.3 | 1 | 4 |
| O=C1c2ccccc2CN2C(=O)c3ccccc3CN12 | 2.8% | -5.4 | 15 | 0.5 | 2 | 0 |
| COc1cccc(C(C(=O)NC(C)(C)C)N(C(=O)CCC(=O)Nc2cc(C)on2)C(C)(C)C)c1OC (configuration not stated) | 4.8% | -2.9 | 8 | -1.1 | 4 | -1 |
| O=C(CSc1n[nH]c(-c2ccccc2)n1)Nc1ccc(F)cc1F | 2.2% | -2.7 | 9 | 0.8 | -7 | -3 |
| COC(=O)CCSc1cc([N+](=O)[O-])cc2c1c(C1OCCO1)nn2-c1ccccc1 | 1.5% | 2.7 | -13 | 0.7 | 42 | -12 |
| COc1cccc(C(=O)N2CCCCC2CCN2CCCCC2)c1 (configuration not stated) | 1.5% | x | x | -0.5 | 3 | x |
| Cc1cc(NC(=O)CSc2nc3ccccc3c(=O)n2C2CCCC2)no1 | 3.1% | 0.1 | 1 | 3.4 | -4 | 3 |
| Cc1ccc(C(=O)NCC(=O)N/N=C/c2cccs2)cc1C | -1.1% | 6.7 | 1 | -0.7 | 11 | 2 |
| CN(C)C=NC(=O)/C(C#N)=C/c1ccccc1 | 11% | -5.2 | 4 | 0.3 | -2 | 9 |
| Cc1ccccc1OC(=O)c1snnc1C | -2.1% | x | x | -0.2 | 0 | x |

In the list so far, these have a thiophene ring, fused or not.
| SMILES | PINK1 modulator | D2 ag | CtBP-E1A blk | TRPML1 agonist | TRPML1 blocker | Six1-Eya2 blk |
| --- | --- | --- | --- | --- | --- | --- |
| CC1(C)Cc2c(c(N3CCCC3)nc3sc4c(N5CCN(CCO)CC5)ncnc4c23)CO1 | x | 0.7 | 9 | -0.1 | -8 | -17 |
| Cc1ccc(C(=O)NCC(=O)N/N=C/c2cccs2)cc1C | -1.1% | 6.7 | 1 | -0.7 | 11 | 2 |

The list continues.
| SMILES | PINK1 modulator | D2 ag | CtBP-E1A blk | TRPML1 agonist | TRPML1 blocker | Six1-Eya2 blk |
| --- | --- | --- | --- | --- | --- | --- |
| Cc1cc(-c2n[nH]c(=S)n2/N=C/c2ccco2)n[nH]1 | -1.5% | -6.6 | -16 | 1.1 | -8 | -5 |
| O=C(Cn1ncc(N2CCOCC2)c(Cl)c1=O)c1ccc(Cl)cc1 | 0.3% | -4.7 | 2 | 0.2 | 7 | 0 |
| Cc1ccc(C(=O)NNc2c3ccccc3nc3ccccc23)cc1 | 3.6% | -2.7 | u | 2.8 | 18 | u |
| CN(C)c1nc2ccccc2c(N)c1-c1ccccc1 | -4.7%[38.3 µM] | -0.3 | 0 | 2.4 | 4 | -1 |
| Fc1cccc(Cc2c(-c3ccc(Cl)cc3)nc3ccc(Br)cn23)c1 | 13% | -6.2 | 4 | 1.2 | 27 | 2 |
| CN(c1ccccc1C(=O)Nc1ccc2c(c1)n(C)c(=O)n2C)S(C)(=O)=O | 4.0% | -5.1 | x | x | x | 3 |
| COC(=O)c1cc(NC(=O)Cc2cc(OC)c(OC)c(OC)c2)cc(C(=O)OC)c1 | 0.2% | 0.4 | 23 | 0.9 | 10 | -2 |
| COc1cc2c(cc1OC)C(c1cccs1)NCC2 (configuration not stated) | -2.0% | -0.9 | 0 | -0.1 | 4 | -11 |

The final 4 compounds of the section above lead into the next.
| SMILES | PINK1 modulator | D2 ag | CtBP-E1A blk | TRPML1 agonist | TRPML1 blocker | Six1-Eya2 blk |
| --- | --- | --- | --- | --- | --- | --- |
| Fc1cccc(Cc2c(-c3ccc(Cl)cc3)nc3ccc(Br)cn23)c1 | 13% | -6.2 | 4 | 1.2 | 27 | 2 |
| CN(c1ccccc1C(=O)Nc1ccc2c(c1)n(C)c(=O)n2C)S(C)(=O)=O | 4.0% | -5.1 | x | x | x | 3 |
| COC(=O)c1cc(NC(=O)Cc2cc(OC)c(OC)c(OC)c2)cc(C(=O)OC)c1 | 0.2% | 0.4 | 23 | 0.9 | 10 | -2 |
| COc1cc2c(cc1OC)C(c1cccs1)NCC2 (configuration not stated) | -2.0% | -0.9 | 0 | -0.1 | 4 | -11 |
| O=C(OCc1ccccn1)C1CCN(C(=O)c2ccc(Cl)cc2)CC1 | 1.4% | 0.7 | 2 | 0.1 | -2 | 6 |
| CCC(Sc1nc2ccccc2c(=O)n1CC1CCCO1)C(=O)NCc1cccnc1 (configuration not stated) | x | -1.9 | 0 | -0.2 | 16 | -18 |
| COc1ccccc1N1CCN(c2nc(C)cc(=O)[nH]2)CC1 | 1.1% | -0.9 | 6 | -0.3 | 20 | 2 |
| COCCN(C(=O)CSc1nnc(Nc2ccccc2F)s1)c1c(N)n(Cc2ccccc2)c(=O)[nH]c1=O | -3.0% | -0.9 | -8 | 5.8 | 6 | 3 |
| Cc1ccc(C(=O)NCCSC(C)(C)C)cc1 | -0.2% | -2.2 | 4 | -0.9 | -9 | -3 |
| O=C(CN1C(=O)c2ccccc2S1(=O)=O)Nc1cc(S(=O)(=O)N2CCCCC2)ccc1Cl | 0.8% | -1.7 | -3 | 0.5 | 5 | -10 |
| CCOP(=O)(Nc1cccc2oc(=O)c3ccccc3c12)OCC | 0.2% | 0.6 | -1 | 0.2 | -14 | -8 |
| COc1ccc(/C=C(\C#N)C(=O)NCCc2ccccc2)cc1OCc1ccccc1 | 3.8% | -0.3 | -7 | 2.4 | -9 | 3 |
| CCOC(=O)c1ccccc1NC(=O)CCc1nc(-c2ccc(C)cc2)no1 | 0.2% | x | x | 0.9 | -5 | x |
| CCN(CC)S(=O)(=O)c1cccc(NC(=O)COC(=O)c2cc(C)oc2C)c1 | 1.3% | 4.0 | -11 | 2.4 | 25 | -6 |
| CC1CN(c2cc(-c3ccccc3)c3ccccc3n2)CC(C)O1 (configuration not stated) | 3.9% | -2.7 | 51 | 1.4 | 8 | 43 |
| O=C(/C=C/c1ccco1)N1CCN(S(=O)(=O)/C=C/c2ccccc2)CC1 | 0.1% | -0.5 | -1 | 6.3 | 0 | -8 |
| CCCCCn1c(=NC(=O)c2ccco2)c(C(=O)OCC)cc2c(=O)n3ccccc3nc21 | 1.6%&6.6% | -2.1&-6.3 | 4&2 | 0.3&1.0 | -7&8 | 9&6 |
| CC1CCN(S(=O)(=O)c2cnc[nH]2)CC1 | 1.0% | -1.9 | x | 0.2 | 43 | -1 |
| CCCCn1nc(C(=O)N[C@@H](CCSC)c2nc3ccccc3[nH]2)c2ccccc2c1=O | -2.1% | -2.3 | -16 | 4.6 | -5 | -7 |
| COC(=O)c1ccccc1NC(=O)Cn1c(=O)n(Cc2ccc(C(=O)NCc3ccc4c(c3)OCO4)cc2)c(=O)c2ccccc21 | 0.7% | x | x | -0.2 | 0 | x |
| COC(=O)c1ccc(NC(=O)CC2C(=O)N(c3ccccc3)C(=O)N2Cc2cccs2)cc1 (configuration not stated) | 2.2% | x | x | 0.1 | -14 | x |
| O=C(O)CCCNS(=O)(=O)/C=C/c1ccccc1 | 1.6% | -3.3 | x | 0.7 | 1 | 7 |
| CCOC(=O)c1c(C)n(C)c2ccc(OCC(N)=O)cc12 | -0.1% | -7.2 | 3 | -1.0 | 9 | -19 |
| CC1(C(=O)NS(=O)(=O)c2ccc(C#N)cc2)CCN1C(=O)Cc1cc(F)ccc1F (configuration not stated) | 0.2% | 4.4 | 3 | -0.6 | x | 12 |
| COc1ccc(/C=C/C(=O)c2ccc3c(c2)OCO3)cc1OC | -2.2% | 0.5 | 12 | -0.5 | 72 | -11 |
| CCOc1ccccc1CNC(=O)c1cc2cc(S(=O)(=O)N3CCCCC3)ccc2n1C | 0.0% | x | x | 2.2 | -26 | x |
| COc1ccc(C2=NOC(C(=O)N3CCN(C(=O)c4ccco4)CC3)C2)cc1OC (configuration not stated) | -0.5% | 0.3 | -5 | -0.1 | 2 | 7 |
| COc1ccc(-c2[nH]nc(-c3ccccc3)c2-c2nc3ccccc3[nH]2)cc1 | -3.6% | -4.3 | -15 | 2.7 | 19 | -3 |
| Cc1ccc2oc(=O)cc(CN3CCC(C)CC3)c2c1 | 22%[38.3 µM] | -0.6 | 3 | -0.6 | 0 | 1 |
| CC(C)[C@H](NC(=O)c1ccc(Cl)cc1)C(=O)OCC(=O)N1CCN(c2ccccc2)CC1 | -2.2% | 3.5 | -3 | 1.5 | 14 | 5 |
| CCN(CC)CCN(C(=O)c1ccco1)c1nc2ccc(Cl)cc2s1 | 2.8% | x | x | 0.4 | -5 | x |
| COc1ccccc1CNC(=O)C(C)Oc1ccccc1 (configuration not stated) | -0.7% | 6.5 | 6 | 1.1 | -7 | 10 |
| COc1cccc(CNC(=O)c2ccc(NC(=O)N3CCCCc4ccccc43)cc2)c1OC | 1.1% | x | x | 1.9 | -11 | x |
